# Source: PubChem (several laboratories)
# T cruzi repl – T. cruzi replication inhibition. actives 1.4% (n = 300,000). inhibition, % (test concentration not listed). T. cruzi beta-gal in NIH3T3, luminescence, 90 h;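 active = mean inhibition across valid replicates above about 55%, limit read from the data; inconclusive = mean below that limit but half or more replicates reach it; inactive = mean below it, under half of replicates reach it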;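 also: signal also drops with host cell toxicity which is not excluded here; 0% = plate median of DMSO wells and 100% = zero luminescence signal; higher percent means less beta-gal luminescence so fewer parasites; stock transfer was 50 nL into about 50 µL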
# AF4-AF9 inh – MLL-AF4/AF9 protein interaction inhibition; P42568; AlphaScreen, biotin-AF4 peptide binding to FLAG-AF9; AID 651704; actives 0.47% (n = 350,000); inhibition, % at 10 µM;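 active = every replicate reaching a set inhibition limit, whatever the replicate mean, cut at about 25% in these data; inconclusive = mean inhibition reaches that limit but some replicates miss it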;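 also: 0% = plate neutral control median and 100% = total signal loss; the record names both 10 and 1 µM as test concentration; the first replicate is given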
# Target sequence (P42568 whole entry, looked up): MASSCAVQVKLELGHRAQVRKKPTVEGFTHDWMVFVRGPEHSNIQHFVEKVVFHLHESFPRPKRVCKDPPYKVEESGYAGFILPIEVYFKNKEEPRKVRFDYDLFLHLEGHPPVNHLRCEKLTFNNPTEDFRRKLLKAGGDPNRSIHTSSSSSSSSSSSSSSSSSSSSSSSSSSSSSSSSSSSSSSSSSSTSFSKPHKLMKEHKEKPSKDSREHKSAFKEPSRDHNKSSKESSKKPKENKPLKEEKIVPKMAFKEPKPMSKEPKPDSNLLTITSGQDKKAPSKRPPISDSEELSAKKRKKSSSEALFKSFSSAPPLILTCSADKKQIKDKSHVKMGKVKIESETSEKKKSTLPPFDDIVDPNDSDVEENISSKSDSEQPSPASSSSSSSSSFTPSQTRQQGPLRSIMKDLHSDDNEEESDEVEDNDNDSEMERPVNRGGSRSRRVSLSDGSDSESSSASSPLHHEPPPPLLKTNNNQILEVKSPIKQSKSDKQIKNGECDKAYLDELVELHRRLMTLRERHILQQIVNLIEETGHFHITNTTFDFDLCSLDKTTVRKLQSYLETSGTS
# Calb FLC – C. albicans growth modulation with fluconazole. C. albicans CaCi-2 (fluconazole-resistant clinical isolate) + fluconazole, Alamar Blue growth, 48 h. growth inhibition, % (concentration not given with the values). actives 0.57% (n = 300,000);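 active = most replicates above 75%; inconclusive = exactly half above 75%; inactive = most below 75%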;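 also: all wells also contain fluconazole at 8 µg/ml as a sub-toxic cotreatment; 0% = median of DMSO wells and 100% = median of geldanamycin control wells; wells of about 8 µL received 7.5 nL stock; the first replicate is given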
# Beta cell apopt – blocks beta cell apoptosis. INS-1E cytokine-induced death, ATP luminescence, 48 h; percent of positive-control rescue, neutral wells zero. protection from apoptosis, % (no concentration beside the values). actives 0.8% (n = 300,000). AID 435005;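 active = all replicates at 75% or more, or half of them and the mean; inconclusive = half reach 75% but not the mean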;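 also: 0% = cytokine-treated negative control wells and 100% = positive control rescue; higher means more ATP so stronger rescue from cytokine killing; wells of about 40 µL received 100 nL stock; the first replicate is given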
# A1 inh – inhibitors of the anti-apoptotic protein A1, read as caspase activation. MEF A1-2A-BIM cells, Caspase-Glo 3/7 luminescence, 3 h; percent of clofoctol response, vehicle zero. caspase activation, % (no concentration beside the values). actives 0.066% (n = 330,000). AID 2462;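 active = over half of replicate activation scores above 10%, or exactly half above 10 with the replicate mean above 10; inconclusive = replicate mean below 10 yet half the replicates above 10; inactive = over half of replicates below 10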;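 also: wells of about 30 µL received 50 nL stock; many hits fall short of the cut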
# Vif A3G – inhibitors of Vif binding to APOBEC3G peptide, primary screen, biochemical, TR-FRET, GST-Vif 1-94, biotin-A3G peptide, dose response retest (AID 1117319). TR-FRET GST-Vif / biotin-A3G peptide binding; higher % means a stronger effect; test concentration not given here; strong numbers were not always called active. inhibition, %, or IC50 in µM where a hit was titrated. actives 0.57% (n = 260,000);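 active = above the screen mean plus three standard deviations and confirmed in dose response; inconclusive = results disagree or hit not tested in dose response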;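 also: Vif residues 1-94 fused to GST binding biotinylated APOBEC3G peptide 110-148; 0% = full assay without inhibitor and 100% = GST in place of GST-Vif; retest series ran down from 100 µM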
# RanGTP-Imp inh – disruptors of Ran-importin-beta complex formation – biochemical, FRET, CFP-Ran, YFP-importin-beta, homogeneous, primary screen; actives 1.1% (n = 300,000); inhibition, % (test concentration not listed); cell-free CFP-Ran/YFP-importin-beta FRET ratio; AID 2216;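 active = most replicates above 15%; inconclusive = exactly half above 15%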;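 also: 0% = DMSO wells and 100% = Ran loaded with GDP instead of GTP; wells of about 40 µL received 100 nL stock; the first replicate is given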
# LANA-H2B inh – blocks KSHV LANA binding to histone H2A/H2B; actives 0.6% (n = 320,000); cell-free LANA-H2A/H2B peptide, fluorescence polarization; Q9QR71; inhibition, % (test concentration not listed); in the data active = inhibition mostly above about 10%, no sharp cut-off; inactive = mostly below about 6.7%;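 also: stock transfer was 7.5 nL into about 10 µL; 0% = median of vehicle wells and 100% = median of positive control wells; one replicate is shown; the record names a cut of 25% in any replicate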
# Starred values were filed as active, the others as inactive; i = inactive; ? = inconclusive; · = no result given. Not a hit list. About 4.3% of those tested had a hit in this group.
structure,T cruzi repl,AF4-AF9 inh,Calb FLC,Beta cell apopt,A1 inh,Vif A3G,RanGTP-Imp inh,LANA-H2B inh
CCN(C(=O)COc1ccccc1[N+](=O)[O-])C1CCS(=O)(=O)C1 (stereo not drawn),-9,·,5,-1,0.5,-1%,-0.9,-6.8
Cc1nc(C)c(C(=O)Nc2ccc(Oc3ccccc3)cc2)o1,-8,·,-3,8,-2.3,12%,-2.7,0.0
COC(=O)[C@H](Cc1ccccc1)NC(=O)N1Cc2ccccc2C[C@H]1C(=O)OC,-14,-4.7,-3,-8,-1.3,0%,4.1,-0.8
O=C(CCCOc1ccccc1)Nc1ccc(Cl)c(S(=O)(=O)N2CCOCC2)c1,·,-0.3,·,-10,-0.6,-5%,·,0.6
COc1ccccc1C(=O)O/N=C(\c1ccccc1)c1ccncc1,-2,-4.9,-4,-4,-0.8,12%,1.1,0.9
Cc1ccc(C(=O)Nc2nc(=O)n(C(=O)c3ccccc3C)s2)cc1,1,·,-3,4,0.4,71%,1.6,-2.5
CC(C)Sc1nc2ccccc2n2cnnc12,10,-3.1,0,8,0.0,·,?,-5.3
Cc1ccc(-c2nn(CCC(=O)O)cc2/C=C\C(=O)c2ccc(Br)cc2)cc1,7,6.0,?,-13,1.0,1%,-1.5,-2.6
O=C(Nc1ccc2c(c1)OCCO2)N1CCN(c2ccc(F)cc2)CC1,-22,·,10,-3,-0.2,-1%,1.2,2.0
COc1ccc(C2CC(C(F)(F)F)n3nc(C(=O)O)c(Cl)c3N2)cc1OC (stereo not drawn),-15,·,-5,-2,-0.5,?,-1.0,-4.5

# The closing 2 records of the section before are carried over, then new ones follow:
structure,T cruzi repl,AF4-AF9 inh,Calb FLC,Beta cell apopt,A1 inh,Vif A3G,RanGTP-Imp inh,LANA-H2B inh
O=C(Nc1ccc2c(c1)OCCO2)N1CCN(c2ccc(F)cc2)CC1,-22,·,10,-3,-0.2,-1%,1.2,2.0
COc1ccc(C2CC(C(F)(F)F)n3nc(C(=O)O)c(Cl)c3N2)cc1OC (stereo not drawn),-15,·,-5,-2,-0.5,?,-1.0,-4.5
CCOC(=O)c1cccc(NC(=O)CN(c2ccc(C)cc2)S(=O)(=O)c2c(C)noc2C)c1,14,·,-36,14,3.1,-2%,0.9,2.5
COc1ccc(N2C(=O)CC(Sc3nnc(-c4ccccc4)o3)C2=O)cc1 (stereo not drawn),-6,·,39,-9,0.0,?,3.8,0.3
OCCN(CCO)CC(O)COc1ccc2c(c1)OCO2 (stereo not drawn),-23,·,-7,-6,0.6,1%,1.8,1.7
Nc1nn(S(=O)(=O)c2ccccc2)cc1-c1ccc([N+](=O)[O-])cc1,53,8.4,6,10,0.3,·,1.6,-6.6
COc1cc(/C=N/NC(=S)Nc2cccc(Cl)c2C)ccc1OCC(=O)N1CC(C)OC(C)C1 (stereo not drawn),5,·,-12,-4,0.2,?,-1.8,-4.5
COc1cc(C)c(Cl)cc1S(=O)(=O)NCC1CCCO1 (stereo not drawn),-17,·,1,-6,-0.5,16%,1.1,7.4
COc1ccccc1CNC(=O)N1CCN(c2ccccc2C)CC1,24,0.2,18,-3,3.2,·,0.4,9.5
O=C(CSc1nnc2ncccn12)N1CCCCCC1,-24,·,3,-9,0.9,1%,-0.3,-1.2
O=C(NC1CCCC1)C(c1ccc(F)cc1)N(C(=O)Cc1cccs1)c1ccc2c(c1)OCCO2 (stereo not drawn),-5,·,1,5,-0.3,-4%,-0.3,2.8
CN(C)c1ccc(NC(=O)c2ccc3nsnc3c2)cc1,0,·,44,8,-0.2,10%,-2.5,7.3
COC(=O)c1ccccc1NC(=O)CSc1nc2ncccc2[nH]1,-7,-1.7,-2,-4,0.1,-4%,0.8,4.8
COCCN(C(=O)COC(=O)Cc1coc2cc(C)ccc12)c1c(N)n(Cc2ccccc2)c(=O)[nH]c1=O,-8,-1.7,6,0,0.3,8%,0.8,3.1
Cc1ccc(NC(=O)Nc2ccccc2)nc1,-3,1.8,2,·,-5.1,·,0.7,-11
CCOC(=O)c1c(NC(=O)C2c3ccccc3Oc3ccccc32)sc(C(C)=O)c1C,26,-5.7,5,·,-1.4,-11%,2.7,-3.3
CCN(C(=O)c1ccc2c(=O)n3c(nc2c1)CCCCC3)c1cc(OC)ccc1OC,4,1.5,-3,2,-1.0,-6%,0.2,8.5
Nc1nc(SCC(=O)N2CCOCC2)n[nH]1,-3,-2.1,-3,·,-0.1,·,-1.7,-1.7
COc1ccc(C2CC(=O)N3CN(c4ccc(C)c(Cl)c4)CSC3=C2C#N)cc1OC (stereo not drawn),-1,2.7,0,-1,0.5,13%,-1.1,-4.1
COc1cccc2cc(-c3csc(NC(=O)CCC(=O)NCCCN4CCC(C)CC4)n3)c(=O)oc12,-10,13,-8,29,-15,-8%,1.4,-4.1
O=C(Cc1ccccc1)c1c[nH]c(C(=O)NC2CCCC2)c1,-3,-0.7,?,-2,1.8,·,3.7,-15
Cc1ccc(-n2[nH]c(C)c(C=Nc3ccc(S(=O)(=O)N4CCOCC4)cc3)c2=O)c(C)c1,-8,-10,19,-4,0.2,·,-3.4,6.8

# Entries shown so far containing a COOH group (2):
structure,T cruzi repl,AF4-AF9 inh,Calb FLC,Beta cell apopt,A1 inh,Vif A3G,RanGTP-Imp inh,LANA-H2B inh
Cc1ccc(-c2nn(CCC(=O)O)cc2/C=C\C(=O)c2ccc(Br)cc2)cc1,7,6.0,?,-13,1.0,1%,-1.5,-2.6
COc1ccc(C2CC(C(F)(F)F)n3nc(C(=O)O)c(Cl)c3N2)cc1OC (stereo not drawn),-15,·,-5,-2,-0.5,?,-1.0,-4.5

# Following part:
structure,T cruzi repl,AF4-AF9 inh,Calb FLC,Beta cell apopt,A1 inh,Vif A3G,RanGTP-Imp inh,LANA-H2B inh
Cc1c(Br)c([N+](=O)[O-])nn1CCCC(=O)NC(C)c1ccccc1 (stereo not drawn),21,5.6,0,-10,0.4,13%,5.0,3.2
COc1ccc(/C=C/C(=O)N2CCCc3ccccc32)cc1,7,4.4,-6,-3,1.0,3%,0.4,-1.0
Cc1ccc2cc(CN(C)S(C)(=O)=O)c(=O)[nH]c2c1,-11,-7.6,-1,-7,0.4,-7%,0.4,0.3
S=C(Nc1ccccc1)N1CCCCC1,-2,·,13,-9,0.1,-2%,8.8,0.4
CC1(C)CC(NC(=O)C2CCN(S(=O)(=O)c3ccc(F)cc3)CC2)CC(C)(C)N1,2,0.6,-1,-2,0.6,·,-1.9,5.3
CCCC(=O)Nc1c2c(nn1-c1ccc(OC)cc1)CS(=O)C2 (stereo not drawn),0,·,-2,-6,1.2,1%,-2.3,1.3
CCc1nn(CC(=O)NC2CCN(Cc3ccccc3)CC2)c(=O)c2cc3cc(F)ccc3n12,8,-15,-2,3,2.3,·,1.5,-2.6
Cn1ccnc1SCC(=O)NC1(C#N)CCCCC1,-9,0.5,2,-4,-0.1,-8%,0.3,2.8
CCCC(=O)N(c1ccc(C(=O)O)cc1)c1nc(-c2ccccc2)c(C)s1,-10,-1.1,-2,-2,2.7,10%,-3.8,4.0
CCCCCc1c(C)nc(N2CCN(Cc3ccc4c(c3)OCO4)CC2)[nH]c1=O,1,-1.0,-24,-1,?,-3%,8.9,1.3
CCN(CC)Cc1c(C(=O)N/N=C/c2c(Cl)cccc2Cl)nnn1-c1nonc1N,2,-0.5,8,1,-0.2,·,1.4,4.1
CCc1nnc(NC(=O)CCC2CCCCC2)s1,-3,·,-1,1,-0.1,·,3.9,-1.2
O=C(O)COc1ccccc1/C=N/NC(=O)c1cc(-c2ccccc2)nc2ccccc12,14,-15,-2,-1,-0.9,15%,2.8,3.5
CC(c1ccon1)N(C)C(=O)c1ccc(OC2CCN(C(=O)C3CC3)CC2)cc1 (stereo not drawn),2,-1.1,-4,1,0.3,-6%,-3.4,-5.7
NC(=O)c1oc2ccccc2c1NC(=O)C1CC(=O)N(c2ccccc2)C1 (stereo not drawn),-3,·,-4,2,0.2,0%,0.4,-4.5
O=C(Nc1ccccn1)c1nc(-c2ccccc2)n(-c2ccccc2)n1,14,2.4,11,-8,0.3,·,·,-3.9
N/C(=N\OCc1ccccc1)c1nonc1N,-9,-1.5,14,-3,1.4,-3%,-0.8,-3.0
O=C(Nc1ccccc1C(=O)Nc1cccnc1)c1ccccc1,6,-1.5,6,7,-3.2,·,-2.4,1.0
COc1cc(CCC(=O)N2CCN(c3ncccn3)CC2)cc(OC)c1OC,14,-3.1,-4,1,0.2,·,-2.4,0.3
Cc1ccc(C)c(COC(=O)CCN=C2NS(=O)(=O)c3ccccc32)c1,0,0.3,-2,2,-0.6,-2%,0.2,1.6
O=C(CN1CCOCC1)N/N=C/c1cccc2ccccc12,-2,-17,-4,-6,0.6,·,2.8,0.7
CC(Oc1ccc(C#N)cc1)C(=O)N1CC=C(c2ccccc2)CC1 (stereo not drawn),·,0.6,·,2,0.7,-6%,·,0.8
COc1ccc(C(=O)N2CCN(c3nc4cc(C)ccc4cc3C#N)CC2)c(OC)c1,-6,·,6,·,-0.5,-8%,3.1,i
CCC(C)NC(=O)c1[nH]c(C)c(C(=O)OC)c1C (stereo not drawn),-23,·,1,2,-1.2,·,?,0.5
CCN(CC)S(=O)(=O)c1cccc(C(=O)NCCc2ccccc2)c1,5,·,22,-3,0.4,-8%,-1.9,7.8
Cc1ccc2nc(SCC(=O)c3ccc(Cl)cc3)nc(=O)n2c1,5,0.0,1,-5,1.1,5%,0.5,-0.2
CC(=O)N1N=C(c2ccc(C)cc2)CC1c1ccco1 (stereo not drawn),-2,-9.4,-5,-15,0.0,-1%,-0.8,3.0
CCc1ccccc1N1C(=O)C(Cl)=C(N2CCOCC2)C1=O,-7,5.1,-6,2,0.1,3%,0.7,1.9
COC(=O)CNC(=O)c1cc(-c2ccncc2)nc2c(C)c(Cl)ccc12,1,1.1,9,3,-0.1,·,-3.6,-4.1
CCOc1ccc(CCNC(=O)C(C)n2nc(C)c3c(C)n(-c4ccccc4)nc3c2=O)cc1 (stereo not drawn),14,-0.1,-5,4,1.2,·,-1.7,-0.2
Cc1ccc(C(=O)CSc2nc3ccccc3c(=O)n2-c2ccccc2)s1,7,·,-19,·,-0.2,-8%,2.5,-7.5
O=C1C(C2=C(O)c3ccccc3C2=O)=Nc2ccccc21,-16,·,-20,2,0.4,14%,?,2.0
O=C(NCCCN1CCCC1=O)C(=O)NCC1OCCCN1S(=O)(=O)c1cc(F)ccc1F (stereo not drawn),-3,0.9,-4,-13,-0.1,10%,-0.6,1.1
Cc1cc(C)cc(OCC(=O)Nc2ccncc2)c1,17,0.7,-17,-1,-0.2,·,1.1,1.0
O=C(O)C/C(=C\c1ccc(Cl)cc1)c1nc2ccccc2o1,-17,-3.1,78,-3,1.1,5%,-2.1,-1.6
O=C1OC(c2ccc(F)cc2)=C/C1=C\c1ccc([N+](=O)[O-])o1,66*,·,-3,4,1.2,8.6µM*,?,6.4
